Screening results (PubChem)
Sa growth 42C – S. aureus growth inhibition at 42 and 30 °C, primary screen, LtaS inhibitor project, RN4220, two temperatures | OD600, 20 h, 42 °C; stronger effect = lower value | relative growth, % (no concentration beside the values) | 0.53% of 170,000 active;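 active means growth at 42 °C up to 50% and 20 or more points under that at 30 °C, or under 10% at both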;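 further: 300 nL library stock went into each well; scaled to the means of positive and negative controls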
GIV Gai3 FP – inhibitors of GIV peptide binding to Galpha-i3, primary screen, biochemical, fluorescence polarization, FITC-GIV GBA peptide, rat Galphai3. percent of control (FP), % (no concentration beside the values). 0.42% of 210,000 active. AID 1224905, 2016. 90 min; stronger effect = lower value; scaled: aluminum fluoride 0%, vehicle 100%;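 active means replicate mean at 85% of control or lower, very high polarization wells dropped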;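 further: wells of about 15 µL received 100 nL stock; the first replicate is given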
Target sequence (P08753 whole entry, looked up): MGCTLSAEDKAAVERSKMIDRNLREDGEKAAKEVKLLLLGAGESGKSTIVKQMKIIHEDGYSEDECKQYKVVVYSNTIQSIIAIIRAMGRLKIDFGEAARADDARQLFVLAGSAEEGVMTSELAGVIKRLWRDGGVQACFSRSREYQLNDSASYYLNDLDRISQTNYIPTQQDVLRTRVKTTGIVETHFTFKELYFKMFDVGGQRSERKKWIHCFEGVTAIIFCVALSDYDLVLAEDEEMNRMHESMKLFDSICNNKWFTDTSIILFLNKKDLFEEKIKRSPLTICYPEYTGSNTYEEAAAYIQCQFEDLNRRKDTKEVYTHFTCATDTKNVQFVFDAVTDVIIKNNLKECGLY
HCMV UL50-53 inh – inhibitors of HCMV UL50-UL53 interaction, biochemical, HTRF; 0.15% of 190,000 active; inhibition, % (test concentration not listed); normalized percent inhibition; AID 1918969, 2023; HCMV UL50-UL53 nuclear egress complex (human cytomegalovirus);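 active means both replicates at 50% or more, plus weaker picks with an unusually low signal ratio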;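 further: stock transfer was 100 nL into about 20 µL; 0% = negative control wells and 100% = wells with untagged competitor protein; inactives centre near -12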
Sa growth 42C second temp – also measured in Sa growth 42C; calls as there; relative growth, %; measured here: growth at 30 °C;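 optical density after 20 h as mean of two plates; 100% = untreated growth and lower means inhibition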
The depositor's hits bear a star; / = not tested or not shown; & = joins results of further samples.

A first look, 7 compounds:
mol | Sa growth 42C second temp | GIV Gai3 FP | HCMV UL50-53 inh | Sa growth 42C
Cc1cc(SCc2[nH]nc3oc(=O)cc(C)c23)c(C)cc1Cl | 83 | 101 | -6 | 86
O=C(Cc1nc2ccccc2s1)c1ccccc1 | 40 | / | 21 | 87
COc1ccc(C(=O)NCC(c2cccs2)S(=O)(=O)c2ccc(F)c(C)c2)cc1 (stereo not drawn) | 83 | 101 | / | 93
Cc1c(C(=O)OC2CCCCCC2)[nH]c2c1C(=O)CC(c1ccc(N(C)C)cc1)C2 (stereo not drawn) | 98 | 106 | 4 | 88
CC(C)NC(=O)C1CCCN(C(=O)c2nnc(C(=O)Nc3ccc4c(c3)OCO4)s2)C1 (stereo not drawn) | / | 112 | -6 | /
Fc1ccc(CNc2ncnc3c2c(-c2ccccc2)cn3-c2ccccc2)cc1 | 97 | 103 | / | 109
COc1ccccc1OCC(=O)NCc1nc(-c2ccc(Cl)cc2)no1 | 89 | 104 | -13 | 121

The listing (from the top)
mol | Sa growth 42C second temp | GIV Gai3 FP | HCMV UL50-53 inh | Sa growth 42C
Cc1cc(SCc2[nH]nc3oc(=O)cc(C)c23)c(C)cc1Cl | 83 | 101 | -6 | 86
O=C(Cc1nc2ccccc2s1)c1ccccc1 | 40 | / | 21 | 87
COc1ccc(C(=O)NCC(c2cccs2)S(=O)(=O)c2ccc(F)c(C)c2)cc1 (stereo not drawn) | 83 | 101 | / | 93
Cc1c(C(=O)OC2CCCCCC2)[nH]c2c1C(=O)CC(c1ccc(N(C)C)cc1)C2 (stereo not drawn) | 98 | 106 | 4 | 88
CC(C)NC(=O)C1CCCN(C(=O)c2nnc(C(=O)Nc3ccc4c(c3)OCO4)s2)C1 (stereo not drawn) | / | 112 | -6 | /
Fc1ccc(CNc2ncnc3c2c(-c2ccccc2)cn3-c2ccccc2)cc1 | 97 | 103 | / | 109
COc1ccccc1OCC(=O)NCc1nc(-c2ccc(Cl)cc2)no1 | 89 | 104 | -13 | 121
O=[N+]([O-])c1ccc(N2CCN(c3ncnc4sc5c(c34)CCCC5)CC2)cc1 | / | 107 | -4 | /
C1=C(C23CC4CC(CC(C4)C2)C3)SC2=NCCN12 | 89 | / | 6 | 94
COc1cc2c(C(=O)N3CCN(c4ccccc4C)CC3)c(C)oc2cc1Br | 89 | 108 | / | 76
COc1ccc(C(=O)N=S2CCN(S(=O)(=O)c3ccc(Cl)cc3)CC2)cc1 | 82 | 99 | -9 | 90
CC(C)(C)c1ccc(-c2noc(C(=O)NN)n2)cc1 | 44 | 105 | -22 | 69
CCOC(=O)c1c(NC(=O)c2ccc(C)c([N+](=O)[O-])c2)sc(C(=O)Nc2ccc(C)c(Cl)c2)c1C | / | 101 | 5 | /
COc1ccc(Cn2c(SCc3ccc(C(=O)NCCc4ccccc4)cc3)nc3cccnc32)cc1 | 86 | 103 | -10 | 102
Cn1c(=O)c2cc(C(=O)N3CCN(c4cccc(C(F)(F)F)c4)CC3)sc2c2ccccc21 | 84 | 100 | -21 | 103
O=S(=O)(NCCc1nnc2ccc(SCc3cccc(Cl)c3)nn12)c1ccccc1 | 83 | 104 | / | 102
O=C1CC2CCC(CN1)N2CC(=O)Nc1ccc(F)cc1 (stereo not drawn) | 83 | 100 | 0 | 115
CN=C(Nc1ccc(C(=O)OC)s1)c1ccccc1 | 93 | / | -55 | 84
Cc1cc(CNC(=O)NCc2ccco2)c(C)n1-c1ccc(F)cc1 | 77 | 124 | -6 | 100
CN(Cc1ccccc1)C(=O)c1cc(-c2ccccc2)n[nH]1 | 84 | 108 | / | 105
Cc1cc(C(=O)Nc2cccc(C(F)(F)F)c2)no1 | 84 | 96 | -7 | 92
COc1ccc(S(=O)(=O)N(CC(=O)N2CCN(c3ccccc3OC)CC2)c2ccc(Cl)cc2)cc1 | / | 103 | -19 | /
FC(F)(F)c1ccc(Cl)c(N=NN2CCOCC2)c1 | 91 | 103 | -10 | 84
CCOC(=O)C1CCN(c2cc3c(cc2NC(=O)NC(C)C)n(C)c(=O)n3C)CC1 | / | 102 | -12 | /
Cn1c(=O)oc2cc(S(=O)(=O)CCC(=O)N3CCN(c4cccc(Cl)c4)CC3)ccc21 | 76 | 107 | / | 91
CCOc1cc(C(=O)Nc2cccc(-c3nc4ccccc4s3)c2C)cc(OCC)c1OCC | / | 94 | 4 | /
COc1cc(OC)c(NC(=O)CSCc2nc(-c3ccc(OC)c(OC)c3)no2)cc1Cl | 97 | 108 | / | 94
O=c1c2sc3ccccc3c2n(Cc2ccccc2)c(=O)n1Cc1ccccc1 | 88 | 105 | 12 | 98
CCc1nnc2c3ccccc3nc(Nc3cc(Cl)ccc3OC)n12 | / | 101 | 1 | /
CC(=O)Oc1ccc(C(C)(C)c2ccc(OC(C)=O)cc2)cc1 | 87 | / | -21 | 89
COc1ccc(N(CC(=O)Nc2cc(OC)ccc2OC)S(=O)(=O)c2ccc(OC)c(OC)c2)cc1 | / | 101 | -14 | /
CCC(O)c1cc2c(cc1NC(=O)c1cccc(Br)c1)OCCO2 (stereo not drawn) | 89 | 103 | -4 | 83
CS(=O)(=O)N1CCc2cc(C(=O)NCCc3ccccc3)ccc21 | 89 | 97 | -25 | 96
COC(=O)c1ccccc1NC(=O)Nc1nnc(N2CCCC2)s1 | 88 | 103 | -5 | 77
CCC(=O)OC1(C)CC2CC(CN(C(=O)C3CCCCC3)C2)C1 (stereo not drawn) | 87 | / | -7 | 100
O=C1CSC(c2ccc(Cl)cc2)N1c1cc(Cl)ccc1O (stereo not drawn) | 57 | 114 | 1 | 49
CC(C)Cc1nc(C(N)=O)c2[nH]c(=O)n(-c3cccc(Cl)c3)c2n1 | 86 | 103 | 4 | 102
Cc1ccc(S(=O)(=O)N2CCN(Cc3ccc4c(c3)OCO4)CC2)cc1C | 88 | 102&96 | -26&-10 | 96
O=C(O)c1cccc(COc2ccc(Cl)cc2)c1 | 107 | / | -10 | 81
CC1=C(C(=O)NCCN2CCCC2)C2(CCCCCC2)OC1=O | 90 | 102 | -12 | 90
COc1cc(Nc2nc3c(S(=O)(=O)c4ccc(C)c(C)c4)nnn3c3ccsc23)cc(OC)c1 | 82 | 101 | / | 100
CCOC(=O)c1cnc(-c2cccs2)nc1Nc1ccccc1 | 88 | 101 | 1 | 92
NS(=O)(=O)c1cc(C(=O)NCC2CCCCC2)ccc1Cl | 97 | / | 0 | 101
O=C(CSc1nnc(-c2ccncc2)o1)NC(=O)Nc1ccccc1 | 92 | 109 | -10 | 106
CCn1nccc1C(=O)NC1=C(C#N)CCC1 | 88 | 107 | / | 131
COc1cccc(CNC(=O)c2cc3c(s2)-c2c(C)nn(-c4ccccc4)c2CC3)c1 | / | 103 | -4 | /
O=C(Nc1ccc(N2CCOCC2)cc1)Nc1ccc2nc(-c3ccco3)c(-c3ccco3)nc2c1 | 87 | 97 | -38 | 122
CC1CN(Cc2ccccc2)c2ccccc2NC1=O (stereo not drawn) | 74 | 106&104 | -15&16 | 98
O=C(CSCc1ccco1)NC1CC1 | 90 | / | -15 | 105
COc1cc(OC)c(NC(=O)C2CCCN(S(=O)(=O)c3ccc4c(c3)oc(=O)n4C)C2)cc1Cl (stereo not drawn) | 90 | 102 | -37 | 86
O=C(c1ccc2nccnc2c1)N1CCCc2ccccc21 | 108 | 103 | -42 | 105
CCOc1ccc(CC(=O)Nc2c(C(=O)c3ccc(Cl)cc3)oc3ccccc23)cc1OCC | 90 | 98 | 10 | 107
COc1ccc(Cn2ccn(Cc3cccc(Cl)c3)c(=O)c2=O)cc1 | 109 | 102 | 14 | 100
CC(C)c1nc(/N=C/N(C)C)nc(=O)n1C | 92 | 98 | -11 | 90
O=C(Cc1ccc(Cl)cc1)OCC(=O)N1CCCCCC1 | 89 | / | -19 | 116
CCOC(=O)C1=C(CN(Cc2ccco2)C2CCCC2)NC(=O)NC1c1ccc(Cl)cc1 (stereo not drawn) | 53 | 115 | 19 | 88
CC(NCC1OCc2ccccc2CO1)c1ccccc1 (stereo not drawn) | 91 | / | -11 | 112
Cc1[nH]ccc(=O)c1OCC(=O)O | 98 | 99 | 1 | 96
Cc1c(CN(C)C(=O)CSc2nc(-c3ccco3)cc(C(F)(F)F)n2)cnn1C | 75 | 103 | -61 | 94
Cc1cc(C)cc(N(CC(=O)Nc2ccc(C(F)(F)F)cc2)S(=O)(=O)c2c(C)[nH]c(=O)[nH]c2=O)c1 | 72 | 107 | -6 | 89

Other entries follow.
mol | Sa growth 42C second temp | GIV Gai3 FP | HCMV UL50-53 inh | Sa growth 42C
Cc1ccc(SCC(=O)Nc2ccc3oc(-c4cccc(Cl)c4)nc3c2)cc1 | 84 | 99 | -9 | 96
CCC(C(=O)N1CCN(c2cccc(OC)c2)CC1)N1C(=O)CCCc2ccccc21 (stereo not drawn) | / | 106 | 1 | /
O=C(NCC1CCCO1)c1c(-c2ccccc2)nnc2ccccc12 (stereo not drawn) | / | 94 | -74 | /
CCc1ccc(NC(=O)c2cnc3ccccn3c2=O)cc1 | 94 | 106 | / | 100
CCOC(=O)CS(=O)c1sc(C(=O)OCC)c2c1C(=O)CCC2 (stereo not drawn) | 97 | 107 | 6 | 93
COc1ccc(NC(=O)C(NS(=O)(=O)c2ccc3c(c2)oc(=O)n3C)C(C)C)c(OC)c1 (stereo not drawn) | 92 | 99 | / | 107
CCOC(=O)CC(N)c1ccc(C)cc1 (stereo not drawn) | 95 | 108 | / | 90
CCc1cc(=O)oc2cc(C)cc(OCC(=O)C(C)(C)C)c12 | 77 | 95 | / | 86
CC(=O)N(CCCCN1C(=O)c2ccccc2C1=O)c1ccc(C)cc1 | 94 | 96 | -30 | 101
CCN(CC)c1ccc(NC(=O)c2cnc3c(-c4ccccc4)c(C)nn3c2C)c(C)c1 | 90 | 111 | / | 111
COc1cc(Cl)c(C)cc1NCC(O)Cn1nnnc1-c1ccccc1 (stereo not drawn) | 84 | 107 | / | 106
Nc1c(C(=O)c2ccccc2)sc2nc3c(cc12)CCCC3 | 101 | 107 | / | 105
Cc1ccc(C)c([C@H]2[C@H](C(=O)c3ccccc3)N3c4ccccc4C=CC3C2(C#N)C#N)c1 (stereo partly drawn) | 50 | / | -37 | 56
COc1ccccc1Cn1ccn(CC(=O)NCCc2ccccc2)c(=O)c1=O | 89 | 102 | / | 86
Cc1ccccc1NC(=O)c1cc2c(s1)-c1ccccc1S(=O)(=O)C2 | 87 | 108 | / | 91
Cn1cc(S(=O)(=O)N2CCOCC2)cc1C(=O)N(CCc1ccccc1)Cc1ccccc1 | 83 | 108 | -22 | 95
Cc1ccc(-n2c(C)cc(C3=NN=C(N)SC3)c2C)cc1C | 25 | / | -25 | 42
CCOC(=O)c1ccc(NN)cc1 | 38 | 103 | 90 | 39
COc1ccc(OC)c(C(=O)c2c(N)c(-c3nc(-c4ccccc4)cs3)c3ccccn23)c1 | / | 104 | -12 | /
Cc1ccc(O)c(C2(O)C(=O)c3ccccc3C2=O)c1 | 93 | / | -9 | 80
O=C1NCCN1C(=O)c1cccc(Cl)c1 | 88 | / | -9 | 96
S=C(Cc1ccc2c(c1)OCCO2)N1CCOCC1 | 86 | / | -12 | 96
CCOc1ccc(NC(=O)c2oc3ccc(Cl)cc3c2C)c2cccnc12 | / | 101 | -3 | /
Cc1nc(Nc2nc(CSc3ccc(Cl)cc3)cc(=O)[nH]2)nc2c(C)cccc12 | 98 | 107 | 5 | 88
CN(Cc1ccccc1)S(=O)(=O)Cc1ccccc1 | 113 | 98 | -3 | 107
CCc1c(C)nc(SCc2nc(-c3ccc(OC(C)C)cc3)oc2C)[nH]c1=O | / | 110 | -11 | /
CCc1nn(CCCN2CCN(c3cccc(Cl)c3)CC2)c(=O)n1CCOc1ccccc1 | 58&56 | 96 | -31&-8&-67&-32 | 95&91
COc1ccc(CCNC(=O)c2ccccc2OC)cc1 | 67 | / | -24 | 64
COc1ccc(CC(=O)NCCc2sc3nc(-c4ccc(OC)cc4)nn3c2C)cc1 | 92 | 93&97 | / | 95
CCN(C(=O)c1cc(S(=O)(=O)N2CCc3ccccc32)cn1C)c1ccc(OC)cc1 | 59 | 104 | -26 | 80
CCCn1c(-c2cccc(Br)c2)nc2ccccc21 | 68 | 101 | -7 | 80
COc1cc(CN2CCCN(C)CC2)cc(OC)c1OC | 113 | 98 | 6 | 104
Clc1ccc(N2CCN(c3ncnc4c3nc3n4CCCC3)CC2)cc1 | 68 | 101 | / | 92
O=C(NC1CCCC1)N1CCCC1c1ccc(F)cc1 (stereo not drawn) | / | 100 | -5 | /
CCc1cccc(NC(=O)C2CCCN2S(=O)(=O)c2ccc3c(c2)CC(C)N3C(C)=O)c1 (stereo not drawn) | 94 | 110 | / | 111
CCC1CCCCN1C(=O)CSc1nnc(C)n2c1cc1sccc12 (stereo not drawn) | 62 | 98 | / | 76
NCCS(=O)(=O)NC1CCCCC1 | 93 | 102 | -12 | 98
